# Assay outcomes (PubChem BioAssay)
# HPGD inh: HPGD (human) dehydrogenase inhibition | purified HPGD, NADH fluorescence kinetic, PGE2 substrate | Potency, µM, for inactives: at the top dose activity change, negative = inhibition, usual class: inhibitors | actives 4.3% (n = 150,000) | P15428; active = well fitted inhibition curve with a large enough effect (not every such curve was filed as active); inconclusive = small, poorly fitted or top-dose-only effect, or another doubt; inactive = no such curve, though single readings can be large or run the other way;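 further: top concentration of the series not given in the record; plate controls included wells without enzyme; inactives centre near -10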
# Target sequence (P15428 whole entry, looked up): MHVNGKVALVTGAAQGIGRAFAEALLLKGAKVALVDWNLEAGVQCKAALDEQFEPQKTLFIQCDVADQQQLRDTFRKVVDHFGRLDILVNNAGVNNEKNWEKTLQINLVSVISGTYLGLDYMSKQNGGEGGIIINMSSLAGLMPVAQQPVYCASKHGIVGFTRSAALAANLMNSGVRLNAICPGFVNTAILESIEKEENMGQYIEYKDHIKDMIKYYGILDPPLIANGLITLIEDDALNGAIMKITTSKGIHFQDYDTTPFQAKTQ
#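 20 nM HPGD preincubated 15 min at room temperature with compound in 50 mM Tris-HCl pH 8, 0.01% Tween 20. Started with 1 mM NAD+ and 30 uM prostaglandin E2; NADH fluorescence (360/450 nm) read 5 times over 30-s intervals, last minus first.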
# The depositor's hits bear a star; ? = inconclusive. On the % scale 0 is the no-effect control and ±100 the full control effect; potency means the concentration at half of the fitted maximal effect. These rows are one share of the data, so the mix of outcomes need not match the whole.
# A first look, 6 compounds:
SMILES | HPGD inh
COc1ccc(NC(=O)c2ccccc2NC(=O)CSc2ccc(Cl)cc2)cc1 | -20%
COc1ccc(OCC(=O)N/N=C/C=C/c2ccccc2)cc1 | -7%
O=C(NCC(c1cccs1)N1CCOCC1)c1ccco1 (stereo not drawn) | 5%
Cc1cccc(N(Cc2nnc3n2CCCCC3)C(=O)Nc2ccccc2)c1 | -1%
Cc1ccc(NC(=O)N/C=C/c2ccccc2)cc1 | -5%
C[N+](C)([O-])Cc1cc(-c2ccccc2)ccc1O | -11%

# This part in full, previewed entries included:
SMILES | HPGD inh
COc1ccc(NC(=O)c2ccccc2NC(=O)CSc2ccc(Cl)cc2)cc1 | -20%
COc1ccc(OCC(=O)N/N=C/C=C/c2ccccc2)cc1 | -7%
O=C(NCC(c1cccs1)N1CCOCC1)c1ccco1 (stereo not drawn) | 5%
Cc1cccc(N(Cc2nnc3n2CCCCC3)C(=O)Nc2ccccc2)c1 | -1%
Cc1ccc(NC(=O)N/C=C/c2ccccc2)cc1 | -5%
C[N+](C)([O-])Cc1cc(-c2ccccc2)ccc1O | -11%
CC(C)=C1C(=O)C(c2ccccc2)=C2CN3C(=O)N(CCc4ccccc4)C(=O)[C@]3(C)[C@H]21 | -5%
Cc1ccc(C(=O)Oc2csc(=S)n2C(=O)c2ccc(C)cc2)cc1 | 5µM*
CC(C)c1ccc(NC(=O)C(c2ccccc2)N2CCC3(CC2)OCCO3)cc1 (stereo not drawn) | -15%
COc1ccc(-c2nc3ccc([N+](=O)[O-])cc3o2)cc1 | -3%
CC(C)(C)C(=O)/C(=C\c1ccc([N+](=O)[O-])cc1)n1cncn1 | ?
COC(=O)c1ccccc1NC(=O)NC1CCN(Cc2ccccc2)CC1 | -14%

# Carrying on:
SMILES | HPGD inh
CCC1CCCCN1Cc1ccc(OC)c(C)c1C (stereo not drawn) | -2%
CCCCc1ccc(NC(=O)COc2ccc(C(=O)Nc3ccccc3OCC)cc2)cc1 | -10%
Oc1ccc(/C=C/c2nc(-c3ccccc3O)n(-c3ccccc3)n2)cc1 | -15%
Cc1c(NC(=O)CSc2nc3ccc(Cl)cc3[nH]2)c(=O)n(-c2ccccc2)n1C | -7%
COc1ccc(N(CC(O)CN2C(=O)NC(C)(C)C2=O)S(=O)(=O)c2ccccc2)cc1 (stereo not drawn) | 3%
CCOC(=O)c1cc(C)n(-c2c(C)n(C)n(-c3ccccc3)c2=O)c1C | -7%
CCOc1cc(CNn2cn[nH]c2=S)cc(Cl)c1OCc1ccccc1F | ?
Cc1ccc(NC(=O)c2ccc(CSc3ccccn3)cc2)cc1 | -16%
Cc1ccc(C(=O)Nc2cccc(C(=O)O)c2)cc1S(=O)(=O)N1CCOCC1 | -12%
Brc1ccc(-c2nnc(-c3ccccc3Br)o2)cc1 | ?
Cc1oc(CC(C)C)cc1C(=O)Nc1cccc2ccccc12 | -19%
O=C(CNC(=O)c1ccccc1F)N/N=C/c1cc(Br)ccc1OCc1ccccc1 | -20%

# Carrying on.
SMILES | HPGD inh
CCOC(=O)c1cnc2c(OC)cccc2c1Nc1ccc2c(c1)OCCO2 | -8%
CCC(=O)N1CCN(CCN=CC2=C(O)CC(C)(C)CC2=O)CC1 | -22%
Cc1cccc(NC(=O)CSc2nnc(-c3ccco3)o2)c1 | -12%
O=C(OCC(=O)N1CCCC1)c1ccccc1OCc1ccccc1 | 1%
Cc1cccc(NC(=S)N/N=C/c2c[nH]c3ccccc23)c1 | -20%
COc1ccc(S(=O)(=O)N(CC(C)C)CC(C)C)c2cccnc12 | -6%
COc1ccc(C(C)=O)cc1CSc1nnc(Nc2ccc(C)cc2)s1 | ?
COc1ccc(C(=O)COC(=O)CNC(=O)C2CCCCC2)c(OC)c1 | 25µM*
C(=N\Nc1nnnn1-c1ccccc1)/c1ccncc1 | -2%
CCOc1ccc(C2=CS/C(=C(\C#N)c3nnc4n3CCCCC4)N2CC)cc1 | ?
Cc1cccc(N2C(=O)C(Cl)=C(Nc3c(C)n(C)n(-c4ccccc4)c3=O)C2=O)c1C | -4%
CC1(C)CC(=O)C2=C(C1)NC(SCC(=O)Nc1ccccc1)=C(C#N)C2c1ccco1 (stereo not drawn) | -8%

# Further results follow.
SMILES | HPGD inh
Cc1ccc(CN(C(=O)c2sc3ccccc3c2Cl)C2CCS(=O)(=O)C2)cc1 (stereo not drawn) | 0%
CCOC(=O)CN(C(=O)CSc1nnc(CNc2ccc(F)cc2)n1CC)c1ccc(F)cc1 | -5%
CCN(CC)CCNC(=O)C(=O)NCC1OCCN1S(=O)(=O)c1ccc([N+](=O)[O-])cc1 (stereo not drawn) | -3%
COc1ccc(CNC(=O)C2CCC(CNc3c(N4CCOCC4)c(=O)c3=O)CC2)cc1 (stereo not drawn) | -17%
O=S(=O)(c1ccc(NCC2CCCCC2)nc1)N1CCOCC1 | -8%
c1cncc(Nc2nc(-c3cccnc3)cs2)c1 | -9%
O=C(CSc1ncnc2c1oc1ccccc12)Nc1ccccc1C(F)(F)F | ?
COC(=O)c1c(CSc2ccc(Cl)cc2)noc1C(=O)NCc1ccco1 | 22µM*
Cc1ccc2c(c1)c1c(n2CC(O)Cn2ccnc2C)C(=O)CCC1 (stereo not drawn) | ?
CC1CCc2c(sc(NC(=O)Cn3nc(C(F)(F)F)c4c3CCCCC4)c2C#N)C1 (stereo not drawn) | 35µM*
COc1cc(OC)cc(-c2cc3nc(C)cc(N4CCN(C(=O)c5ccco5)CC4)n3n2)c1 | ?
Cc1n[nH]c(=S)n1/N=C/c1ccc(Br)o1 | -10%

# Carrying on:
SMILES | HPGD inh
CC(C)c1ccc(OCC(=O)Nc2cccc3c2CCCC3)cc1 | ?
CC(=O)c1c(C(C)=O)c(C)n(-c2cccc([N+](=O)[O-])c2)c1C | -15%
Cc1ccc(OCCn2cc(/C=C(\C#N)C(=O)NCC3CCCO3)c3ccccc32)cc1C (stereo not drawn) | -13%
CCOC(=O)Cc1csc(NC(=O)c2c(O)c3ccccc3n(C)c2=O)n1 | -7%
O=C(N/C(=C\c1ccc2c(c1)OCO2)C(=O)N1CCOCC1)c1cccs1 | 0%
COc1ccc2[nH]c(C)c(CCN(Cc3cccs3)C(=S)Nc3ccccc3)c2c1 | -7%
O=C(Nc1ccccc1)N1CC2(CCN(C(=O)c3cnccn3)CC2)C1 | -8%
CC1CC(C)CN(C(=O)c2ccccc2Nc2ccc(SC(F)F)cc2)C1 (stereo not drawn) | -19%
Cc1ccc(C2CC(c3ccccc3)n3ncnc3N2)cc1 (stereo not drawn) | -9%
CC(C)CNC(=O)COc1ncnc2ccccc12 | -7%
CC(OC(=O)c1cc(=O)[nH]c2ccccc12)c1ccccc1 (stereo not drawn) | -16%
CCOC(=O)CCNC(=O)Nc1ccc2nc(C)n(Cc3cccc(Cl)c3)c(=O)c2c1 | ?

# The listing continues.
SMILES | HPGD inh
CCn1c(=O)c(C(=O)CN2CCN(S(=O)(=O)c3cc(C)ccc3C)CC2)c(N)n(Cc2ccccc2)c1=O | -15%
CC1CCc2c(nc3ncnn3c2N2CCN(c3ccccc3)CC2)C1 (stereo not drawn) | -12%
Cc1cccc(-n2cnc3cc(C(=O)N4CCCCC4)ccc32)c1 | 0.071µM*
CC(C)CN1C(=O)C(=O)N(CC(=O)NCc2ccc3c(c2)OCO3)C1=O | 2%
COc1cccc(CN(Cc2ccco2)S(=O)(=O)c2ccc(S(=O)(=O)NCc3ccccc3)cc2)c1OC | -12%
COc1ccc(Cc2nc(-c3cccc(C)c3)no2)cc1 | -11%
Fc1ccccc1NC(=S)NNc1ncc(C(F)(F)F)cc1Cl | -25%
Cc1[nH]c2ccccc2c1C(=O)COC(=O)CCS(=O)(=O)c1ccccc1Cl | -3%
COc1ccc(NC(=O)Nc2nnc(N3CCC(C)CC3)s2)cc1OC | -3%
COc1ccc(Oc2ccc(N/C=C3/CCCC3=O)cc2)cc1 | -18%
Cc1ccc(CSc2nn3c(=O)c(C)nnc3s2)cc1 | -10%
O=C(COC(=O)c1nc(Cl)ccc1Cl)c1ccc(Cl)s1 | -27%

# (continued)
SMILES | HPGD inh
Cc1no[n+]([O-])c1COc1ccc(/C=C(\C#N)C(N)=O)cc1 | -18%
COc1cccc(/C=N/n2c(-c3ccco3)nc3ccccc3c2=O)c1 | -13%
COc1ccc(C2CC(C(F)(F)F)n3ncc(C(=O)Nc4cccc(O)c4)c3N2)cc1OC (stereo not drawn) | -14%
CN(CC(=O)Nc1cccnc1)S(=O)(=O)c1cc(Cl)ccc1Cl | 5%
Cc1ccc(C(C(=O)NC2CCCCC2)N(C(=O)Cc2c[nH]c3ccccc23)c2ccccc2)o1 (stereo not drawn) | -10%
CCCC1(c2ccccc2)NC(=O)N(CC(=O)Nc2sc(-c3ccccc3)cc2C(=O)OCC)C1=O (stereo not drawn) | ?
CCN(CC)S(=O)(=O)c1cccc(C(=O)Oc2cccc(NC(=O)c3cccs3)c2)c1 | -15%
CC(=O)N(Cc1cccnc1)Cc1cc2ccc(C)cc2[nH]c1=O | -14%
Cc1ccc2cc(CN(CCO)Cc3nnnn3Cc3ccc(F)cc3)c(=O)[nH]c2c1 | -12%
CN(C)c1nc(NS(=O)(=O)c2ccc(Cl)cc2)nc(N(C)C)n1 | -2%
O=C(Cn1c(=O)n(CC2CCCO2)c(=O)c2ccccc21)c1ccc(Cl)c(Cl)c1 (stereo not drawn) | -7%
CCCN(CCC)C(=O)Cn1c(=O)n(CCC(=O)NCCc2ccccc2)c(=O)c2ccccc21 | -6%

# Continued.
SMILES | HPGD inh
Cc1ccc(/C=N/NC(=O)Cn2nc(C)c(Br)c2C)o1 | 2%
CC1CCCCC1NC(=O)CSc1nnc(COc2ccccc2Cl)o1 (stereo not drawn) | ?
COc1ccc(N2CCN(CCCNC(=O)CN3CCN(Cc4ccccc4C)C3=O)CC2)cc1 | 0%
COc1ccc(Oc2nnc(-c3ccccc3)cc2C#N)cc1 | -7%
O=C1CC(N2CCN(C/C=C/c3ccccc3)CC2)C(=O)N1Cc1cccs1 (stereo not drawn) | -1%
CCN(C(=O)c1cc(Cl)ccc1OC)c1ccccc1 | -7%
CCOc1ccc(N(CC(=O)Nc2cccc(OC)c2)S(=O)(=O)c2c(C)noc2C)cc1 | -11%
O=C(c1ccco1)N1CCN(c2nc(-c3ccc(F)cc3)cs2)CC1 | -24%
COC(=O)c1ccc(OCc2cc(=O)n3ccsc3n2)cc1 | ?
COC(=O)c1ccc(COc2ccc(-c3nnn(CC(=O)NC(C)(C)C)n3)cc2)cc1 | -7%
COc1cccc(NC(=O)COC(=O)COc2ccccc2[N+](=O)[O-])c1 | 3%
O=C(c1ccccc1Oc1ccccc1)N1CCN(c2ccccc2)CC1 | -21%

# (further entries)
SMILES | HPGD inh
CCOC(=O)c1cc(NC(=O)c2cnccn2)cc(C(=O)OCC)c1 | -17%
Cc1cc(NC(=O)c2cccs2)n(-c2ccccc2)n1 | -18%
OCCNCc1cc(Br)ccc1OCc1ccccc1Cl | -13%
COc1ccc(C(=O)NC(CO)c2nnc(SCc3ccc(Cl)c(Cl)c3)n2C)cc1 (stereo not drawn) | 2%
Cc1ccc(NC2OC(C(O)CO)C(O)C2O)cc1[N+](=O)[O-] (stereo not drawn) | -26%
COc1ccccc1-c1nnc(SCC(=O)N2CC(C)CC(C)C2)o1 (stereo not drawn) | -19%
COc1ccc(C(=O)CN2C(=O)C(C)(C)Oc3ccc(C(=O)N4CCCCCC4)cc32)cc1 | 8.9µM*
CNC(=O)c1cc2c(cn1)[nH]c1ccccc12 | ?
Nc1cc(OC(=O)c2cccs2)nn1S(=O)(=O)c1ccccc1 | -2%
NC(=O)CC1SC(N)=NC1=O (stereo not drawn) | 1%
O=C(CN1C(=O)NC2(CCSC2)C1=O)N1CCN(c2ccc(F)cc2)CC1 (stereo not drawn) | -3%
O=S(=O)(Cc1ccccc1)Nc1ccc(S(=O)(=O)NCC2CCCO2)cc1 (stereo not drawn) | 0%

# The listing continues:
SMILES | HPGD inh
COc1cccc(C(=O)Nc2ccc(N3CCN(S(C)(=O)=O)CC3)cc2)c1 | -5%
COc1ccc(NC(=O)CSc2nc3c(c(=O)n2-c2ccccc2OC)SCC3)cc1 | -5%
Cc1ccc(N2C(=O)c3ccccc3C2Nc2ccc(S(=O)(=O)N3CCOCC3)cc2)nc1 (stereo not drawn) | -7%
O=C(CSCc1ccc(Cl)c(Cl)c1)Nc1c[nH]c(=O)[nH]c1=O | -9%
Cc1ccccc1OCC(O)CN1CCN(CCN2C(=O)c3cccc4cccc(c34)C2=O)CC1 (stereo not drawn) | -18%
Cc1c(CCC(=O)O)c(=O)oc2cc3occ(-c4ccc(F)cc4)c3cc12 | -17%
O=C(COc1ccc(Br)cc1)Nc1cc(S(=O)(=O)N2CCCCC2)ccc1N1CCCCC1 | -11%
Cc1ccc(Oc2nn[nH]n2)cc1 | -7%
COc1cc(C(=O)NCc2cn3cccc(C)c3n2)cc(OC)c1OC | 0%
CSc1nc(N)nc(-c2cccs2)c1C#N | -15%
COc1ccc(NC(=O)Cn2c(=O)n(CC(=O)NCc3ccco3)c(=O)c3ccccc32)cc1 | -4%
O=C(CSc1nc2ccccc2[nH]1)N1CCCCC1 | -21%

# (cont.)
SMILES | HPGD inh
O=c1[nH]cnc2c1sc1nc3c(c(-c4ccc(Cl)cc4)c12)CCC3 | ?
Cc1ccc(N(Cc2ccco2)C(=O)c2cccc(S(=O)(=O)N(C)C)c2)cc1 | 3%
CCOC(=O)CCCSc1nc2sc3c(c2c(=O)[nH]1)CCC3 | 3.5µM*
CCCCNC(=O)NNC(=O)c1ccoc1C | 0%
